CBX7 AlphaScr: CBX7 chromodomain binding inhibitors, primary screen, biochemical, AlphaScreen | Chromobox protein homolog 7 (Homo sapiens), O95931 | AlphaScreen His6-CBX7 / biotin-H3K27me3 peptide binding; hits give low values | normalised signal (fraction of DMSO) (no concentration beside the values) | 66,000 tested, 1.1% active | AID 1224903, 2016; in the data active = normalised signal below about 0.5;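 note: 100 nL library stock added to about 20 µL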
Target sequence (O95931 whole entry, looked up): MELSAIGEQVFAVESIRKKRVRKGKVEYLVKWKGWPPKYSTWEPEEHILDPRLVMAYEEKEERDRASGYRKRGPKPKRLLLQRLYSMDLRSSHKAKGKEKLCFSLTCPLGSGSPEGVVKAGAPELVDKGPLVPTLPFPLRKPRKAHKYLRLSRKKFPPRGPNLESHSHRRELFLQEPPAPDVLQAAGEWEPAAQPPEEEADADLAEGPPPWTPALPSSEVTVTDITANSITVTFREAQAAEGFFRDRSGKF
CBX7 AlphaScr z-score: also measured in CBX7 AlphaScr; calls as there; z-score; measured here: z-score of CBX7 signal; some inactives read as strong as hits; reference of the scale not given here;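 same signal on another scale; lower means less binding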
Numbers without * were called inactive. An excerpt; the hit share may differ from the screen's.

A first look:
SMILES | CBX7 AlphaScr | CBX7 AlphaScr z-score
CCOC(=O)c1[nH]c2c(c1Cc1ccccc1C)C(=O)CC(c1cccs1)C2 (configuration not stated) | 0.814 | -2.39
Cn1c(C(=O)N2CCC(C(=O)NCc3ccccc3)CC2)cc2sccc21 | 1.11 | 1.94
COc1ccc(NC(=O)C2CC(c3ccc(OC)cc3)=NO2)cc1 (configuration not stated) | 1.06 | 0.776
CN1C(N)=NC(=O)C1C1(O)C(=O)Nc2ccccc21 (configuration not stated) | 1.1 | 0.945

The whole of this part, from the start:
SMILES | CBX7 AlphaScr | CBX7 AlphaScr z-score
CCOC(=O)c1[nH]c2c(c1Cc1ccccc1C)C(=O)CC(c1cccs1)C2 (configuration not stated) | 0.814 | -2.39
Cn1c(C(=O)N2CCC(C(=O)NCc3ccccc3)CC2)cc2sccc21 | 1.11 | 1.94
COc1ccc(NC(=O)C2CC(c3ccc(OC)cc3)=NO2)cc1 (configuration not stated) | 1.06 | 0.776
CN1C(N)=NC(=O)C1C1(O)C(=O)Nc2ccccc21 (configuration not stated) | 1.1 | 0.945
COc1ccc(C2NCCc3c2[nH]c2ccccc32)cc1COc1ccccc1F (configuration not stated) | 0.509 | -10.6
Cc1cccn2cc(-c3cccc(S(=O)(=O)N4CCCCCC4)c3)nc12 | 0.976 | -0.864
Cc1ccc(-c2nc(-c3ccc(Br)cc3)no2)cc1C | 1.18 | 2.02
CCC1Sc2ccccc2N(CC(=O)NCc2cccs2)C1=O (configuration not stated) | 0.996 | -0.127
O=C1CN(C(=O)c2ccccc2F)C(c2ccc(F)cc2)c2cc(Br)ccc2N1 (configuration not stated) | 0.944 | -1.14
CCOCCCNS(=O)(=O)c1ccc2c(c1)CCN2C(=O)C1CC1 | 1.02 | 0.47
O=C(NCc1ccc2c(c1)OCO2)c1cc(=O)[nH]c2ccc(S(=O)(=O)N3CCCCCC3)cc12 | 1.09 | 1.23
NS(=O)(=O)c1ccc(CCNC2CC(=O)N(c3ccc(F)cc3)C2=O)cc1 (configuration not stated) | 1.08 | 0.706
Cc1cc2nc(Cc3ccccc3C(F)(F)F)c(=O)n(C)c2cc1C | 1.14 | 2.96
COc1ccc(NC(=O)COc2ccc(N3CC(C(=O)NCc4ccc(C)cc4)CC3=O)cc2)cc1 (configuration not stated) | 1.06 | 1.17
COCCNC(=O)C1CCN(c2nnc(-n3cccc3)s2)CC1 | 0.985 | -0.585
Cc1cc(C(=O)Nc2ccc(C)c(C)c2)n(-c2ccccc2)n1 | 1.04 | 1.37
Cc1ccc(-c2noc(CCC(=O)Nc3cccc(C)n3)n2)cc1 | 0.847 | -0.208
CCc1ccc(NC(=O)Cn2cc(S(=O)(=O)c3ccc(C)cc3)c(=O)c3cc(OC)ccc32)cc1 | 0.976 | -0.335
COc1cccc(Nc2nc(-c3ccccc3)c3cc(C)ccc3n2)c1 | 1.72 | 13
Cc1ccc(S(=O)(=O)C2(C(=O)Nc3nccs3)CC2)cc1 | 0.891 | -2.16
CCOc1ccc2cc(-c3nnc(-c4cccc(OC)c4)o3)c(=O)oc2c1 | 1.04 | 0.842
CCN(CC)CCNC(=O)c1cc2c(s1)-c1c(C)cccc1OC2 | 1.15 | 5
COc1ccc(C(=O)NCCc2nc3ccccc3n2C)cc1OC | 1.23 | 1.65
CCC(=O)Nc1ccc(Nc2nc3ccc(C)cc3nc2-n2nc(C)cc2C)cc1 | 1.13 | 4.63
O=C1CC(c2cc(Br)ccc2F)c2cc3c(cc2N1)CCC3 (configuration not stated) | 0.757 | -0.981
COc1ccc(-c2nnc(NC(=O)C(C)C)s2)cc1OC | 1.11 | 0.307
O=C(CSc1nnc(Cc2cc(=O)[nH]c(=O)[nH]2)n1-c1ccccc1)Nc1ccc2c(c1)OCO2 | 0.995 | -0.17
CCCCNC(=O)c1cc(Nc2cccc(C(F)(F)F)c2)nc2ccccc12 | 1.33 | 6.58
O=C(Nc1ccc(Cl)cc1)c1ccc(CNc2c(N3CCCCC3)c(=O)c2=O)cc1 | 0.942 | -0.134
COc1ccc(NC(=O)c2cccc(NC3=NC4CS(=O)(=O)CC4S3)c2)cc1 (configuration not stated) | 0.862 | -1.51
Cc1ccc(CN2C(=O)c3ccccc3Sc3ccc(C(=O)NC4CCCC4)cc32)cc1 | 0.814 | -0.749
O=c1oc2ccc(Br)cc2cc1-c1nnc(-c2ccc(Br)cc2)o1 | 0.948 | -0.564
CCCCCC1CCC(c2ccc(-c3noc(-c4ccncc4)n3)cc2)CC1 (configuration not stated) | 1.11 | 1.21
Cc1nccc2[nH]c(=O)c(C(=O)NC(C)C)cc12 | 1.04 | 0.253
CCOc1ccc(CCNC(=O)c2ccc3c(c2)N(Cc2ccccc2)CCS3)cc1 | 0.848 | -0.202
O=C(Cn1ccc2ccccc2c1=O)NCCC(=O)Nc1ccc(F)cc1 | 1.12 | 3.05
O=C(NCc1ccc(F)cc1)C1CCN(S(=O)(=O)c2cccnc2)CC1 | 1.16 | 4.17
COc1ccccc1NC(=O)c1c(NC(=O)c2ccccc2F)sc2c1CCC2 | 1.24 | 9.58
COc1ccc(-c2nn3c(-c4ccccc4Cl)nnc3s2)cc1 | 1.01 | 0.371
c1ccc(Nc2c(-c3ccccc3)nc3cnccn23)cc1 | 0.975 | -0.279
CCN(CC)S(=O)(=O)c1ccc2[nH]cc(C(=O)NC(C)C)c(=O)c2c1 | 0.956 | -0.665
O=C(NCc1cccnc1)c1cc2ccccc2oc1=O | 0.991 | -0.105
COc1cc(OC)cc(-n2nc(C(=O)Nc3ccc(Oc4ccccc4)cc3)c3ccccc3c2=O)c1 | 0.924 | -2.02
CC(C)N1C(=O)CCC1C(=O)NC(c1ccccc1)c1ccccc1 (configuration not stated) | 1.06 | 1.07
COc1ccc(NC2CCC(C3OCCO3)CC2O)cc1 (configuration not stated) | 1.13 | 1.24
COc1cc2c(C(=O)Nc3ccccc3F)cn(CC(C)C)c(=O)c2cc1OC | 0.919 | -2.1
CC1CCCC(NC(=O)Nc2ccc3snnc3c2)C1C (configuration not stated) | 0.903 | -1.83
COc1ccc(CNc2nc(-c3ccc(OC)cc3)cc(C(F)(F)F)n2)cc1 | 1.36 | 14.4
CCOCCCNC(=O)c1cc(Nc2ccc(OC)cc2)nc2ccccc12 | 0.913 | -1.03
CC1=Nc2cc(C(=O)NCc3ccc(C)cc3)ccc2Sc2ccc(C)cc21 | 0.997 | -0.0711
COc1cccc(-c2nnc(-c3ccc(F)cc3)o2)c1 | 1.36 | 3.48
CCN(CC)S(=O)(=O)c1ccc2c(c1)N(CC(=O)NCc1cccnc1)C(=O)CO2 | 1.04 | 1.01
COc1ccc(-c2nc(Cn3c(SCc4cccc(F)c4)nc4ccncc43)c(C)o2)cc1OC | 0.868 | -6.28
O=C(Nc1ccccc1C(F)(F)F)c1cc(-c2ccco2)on1 | 1.1 | 2.41
O=C(NC1CCCCCC1)C1CCCN(S(=O)(=O)c2cccnc2)C1 (configuration not stated) | 1.02 | 0.0218
CC(C)OCCCNC(=O)c1ccc(CSc2nc3ccncc3n2Cc2ccc(F)cc2)cc1 | 1.01 | 0.415
O=C1CC(Cc2ccccc2)C(=O)N1c1ccc(OC(F)(F)F)cc1 (configuration not stated) | 1.21 | 2
CCN(CC)CCNC(=O)CCc1c(C)nc2c(c(C)nn2-c2ccc(C)cc2)c1C | 1.96 | 7.26
CCOC(=O)c1c(NC(=O)c2ccccc2Br)sc2c1CCN(C(=O)OCC)C2 | 1.18 | 5.45
CCN(CC)CCN1C(=O)Cn2c3c(c4cccc1c42)CCC3 | 1.13 | 1.04

(continued)
SMILES | CBX7 AlphaScr | CBX7 AlphaScr z-score
COC(=O)c1cc2occc2n1CC(=O)Nc1ccc(F)cc1F | 1.03 | 0.835
O=C(NCCS)C1CCC(Cn2c(=O)[nH]c3ccsc3c2=O)CC1 (configuration not stated) | 1.23 | 1.73
Cc1ccc(-c2noc(/C=C/c3ccccc3Cl)n2)cc1 | 1.21 | 2.61
Cc1ccc(NC(=O)C(NS(=O)(=O)c2ccc3c(c2)CCC(=O)N3)c2ccccc2)cc1C (configuration not stated) | 0.945 | -1.79
CCC1=Nc2cc(C(=O)NCC3CCCO3)ccc2Sc2ccc(C)cc21 (configuration not stated) | 0.991 | -0.0953
CCOc1ccc2nc(N3CCC(C(=O)N4CCN(C5CCCCC5)CC4)CC3)sc2c1 | 0.923 | -2.09
CC1CCN(c2c(NCc3ccc(C(=O)N4CC=C(c5ccccc5)CC4)cc3)c(=O)c2=O)CC1 | 0.979 | -0.845
O=C(CN1CCN(Cc2ccc(Cl)cc2)C1=O)NCC1CCCO1 (configuration not stated) | 1.03 | 0.5
FC(F)(F)c1cc(-c2cccs2)nc(N2CCCCC2)n1 | 2.22 | 9.81
CCN1CCN(c2ccc(NC(=O)CCc3c(C)nc4c(-c5ccccc5)c(C)nn4c3C)cc2)CC1 | 1.02 | 0.174
O=C(NC1CCCC1)c1ccc2c(c1)ncn2C1CCCCCC1 | 1.08 | 0.837
CCOC(=O)c1c(NC(=O)COc2cc(Cl)ccc2Cl)sc2c1CCC2 | 0.961 | -0.76
CCOC(=O)c1cnc2ccc(OCC)cc2c1Nc1ccc(CC)cc1 | 1.06 | 1.58
CCc1cccc(C)c1Nc1c(-c2ccc(N(C)C)cc2)nc2ncccn12 | 0.545 | -5
O=C(CCn1c(=O)[nH]c2ccccc2c1=O)NC1CC1 | 1.06 | 0.157

Profiles, quoted from the list. Values in the order: CBX7 AlphaScr	CBX7 AlphaScr z-score
O=C(NCCS)C1CCC(Cn2c(=O)[nH]c3ccsc3c2=O)CC1 (configuration not stated) in the list: 1.23	1.73
CCOC(=O)c1cnc2ccc(OCC)cc2c1Nc1ccc(CC)cc1 in the list: 1.06	1.58
CCN1CCN(c2ccc(NC(=O)CCc3c(C)nc4c(-c5ccccc5)c(C)nn4c3C)cc2)CC1 in the list: 1.02	0.174

The list continues.
SMILES | CBX7 AlphaScr | CBX7 AlphaScr z-score
COc1ccc(-c2nn(C)c3sc(C(=O)N4CCN(C)CC4)cc23)cc1OC | 1.03 | 0.74
Cn1c(=O)n(CCOc2ccccc2)c2ccccc21 | 0.909 | -1.17
Cc1ccc(N2CC(c3nc4ccccc4n3Cc3ccccc3)CC2=O)cc1C (configuration not stated) | 0.889 | -2.52
COc1ccccc1-c1csc(NC(=O)c2ccc(S(=O)(=O)N(C)C)cc2)n1 | 0.988 | -0.459
O=C(Nc1ccccc1Cl)C1=CCN(S(=O)(=O)c2ccccc2)CC1 | 1.01 | 0.111
Cc1ccc(-c2nn(C)c(=O)c3ccccc23)cc1CNC(=O)c1ccccc1 | 1 | -0.0145
COc1ccc(N2CCN(C3CC(=O)N(c4ccc(C(F)(F)F)cc4)C3=O)CC2)cc1 (configuration not stated) | 1.06 | 1.64
CCOC(=O)c1ccc(NC(=O)CC2C(=O)N(c3ccc(F)cc3)C(=O)N2CCCOC)cc1 (configuration not stated) | 1.11 | 0.44
COc1ccc(CN2CC(C(=O)NCc3ccccn3)CC2=O)cc1 (configuration not stated) | 0.367* | -11.9*
COc1cc2c(cc1OC)C(C(=O)Nc1ccc(F)cc1)C1c3ccccc3CCN1C2=O (configuration not stated) | 1 | 0.0748
COc1ccc(-n2ccnc2SCC(=O)Nc2cccc3ccccc23)cc1 | 0.702 | -4.56
Cc1cc(C(=O)Nc2ccc(F)cc2C)n(-c2ccccc2)n1 | 1.09 | 2.22
O=C(NCc1cccnc1)c1cc(-c2ccc(Cl)cc2)on1 | 1.03 | 1.14
CS(=O)(=O)c1ccc2nc(NC(=O)CCCc3ccccc3)sc2c1 | 1.01 | 0.123
O=C(Nc1nnc(Cc2ccccc2F)s1)c1ccc(Cl)cc1Cl | 1.1 | 2.46

At a glance, some entries already given:
SMILES | CBX7 AlphaScr | CBX7 AlphaScr z-score
O=C(Nc1ccccc1Cl)C1=CCN(S(=O)(=O)c2ccccc2)CC1 | 1.01 | 0.111
Cc1ccc(-c2nn(C)c(=O)c3ccccc23)cc1CNC(=O)c1ccccc1 | 1 | -0.0145
COc1ccc(N2CCN(C3CC(=O)N(c4ccc(C(F)(F)F)cc4)C3=O)CC2)cc1 (configuration not stated) | 1.06 | 1.64
CCOC(=O)c1ccc(NC(=O)CC2C(=O)N(c3ccc(F)cc3)C(=O)N2CCCOC)cc1 (configuration not stated) | 1.11 | 0.44
COc1ccc(CN2CC(C(=O)NCc3ccccn3)CC2=O)cc1 (configuration not stated) | 0.367* | -11.9*

(continued)
SMILES | CBX7 AlphaScr | CBX7 AlphaScr z-score
O=c1oc2ccc(Cl)cc2cc1-c1nnc(Nc2ccccc2)s1 | 0.976 | -0.548
CCC(C)N1C(=O)CCC1C(=O)N1CCN(c2ccccc2F)CC1 (configuration not stated) | 1.06 | 1.97
CC1=CC(C)C2(COC(=O)NC3CCCCC3)COC(c3ccc4c(c3)OCO4)C1C2C (configuration not stated) | 0.906 | -0.164
COc1ccc(C(=O)Nc2ccc(-c3nc4ccccc4o3)c(O)c2)cc1OC | 0.962 | -1.67
Cc1ccc(-c2nc3ncccc3o2)cc1NC(=O)c1ccc(Br)cc1 | 0.923 | -0.643
O=C(CSc1nnc(CNC(=O)c2ccccc2F)o1)Nc1ccc(Cl)cc1 | 0.901 | -1.62
CCOc1ccc(CN2C(=O)c3ccccc3Sc3ccc(C(=O)N4CCOCC4)cc32)cc1 | 0.925 | -0.325
Nc1c(C(=O)O)nnn1Cc1ccccc1 | 0.755 | -2.41
CC1CCCN(C(=O)Cn2nc(Cc3ccncc3)c3ccccc3c2=O)C1 (configuration not stated) | 1.04 | 1.03
CCCCOC(=O)c1ccc(NC(=O)c2cnc3scc(C)n3c2=O)cc1 | 1.1 | 0.732
Cc1cccc(-c2nc(-c3ccccc3)c(-c3cccs3)[nH]2)c1 | 0.979 | -0.132
CC1CC(C)CN(S(=O)(=O)c2ccc(C(=O)Nc3nnc(-c4cccs4)o3)cc2)C1 (configuration not stated) | 0.877 | -2.77
O=C(Nc1ncc(Br)s1)C1CCCN1S(=O)(=O)c1cccc2cccnc12 (configuration not stated) | 0.947 | -1.78
Cc1ccc(C)c(NC(=O)C2CCN(S(=O)(=O)c3cnc[nH]3)CC2)c1 | 1.03 | 0.249
COc1ccccc1NC(=O)CCc1c(C)nc2c(-c3ccc(F)cc3)c(C)nn2c1C | 1.1 | 3.04
CCC1CCCCN1C(=O)CSc1nnc(-c2ccc3c(c2)OCCO3)o1 (configuration not stated) | 1.13 | 2.53
